# Screening data as filed in PubChem BioAssay.
# Bead autofluor: compound fluorescence in toxin protease inhibitor counterscreen; fluorescence intensity (concentration not given with the values); AID 624483; 360,000 tested, 3.1% active; compound autofluorescence counterscreen, microsphere flow cytometry; stronger effect = higher value;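 active = at least 3 SD above the mean of all compounds, about 16000 in these data; inconclusive = too few beads counted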;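 note: 100 nL of 1 mM stock went into each well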
# ugtP null kill: growth inhibition of ugtP-null S. aureus, primary screen, RN4220 ugtP deletion, OD600; 16 h; some inactives read as strong as hits; growth inhibition, % (no concentration beside the values); 330,000 tested, 0.54% active;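 active = z-score under -3 and OD600 up to 0.15 on both plates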;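 note: plate controls were untreated wells for no effect and antibiotic for full effect; wells of about 80 µL received 100 nL stock; the first replicate is given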
# Mtb hypoxia rep: PubChem AID 1159583; M. tuberculosis hypoxia-regulated fluorescent reporter, fluorescence; fluorescence inhibition, % (test concentration not listed); 300,000 tested, 0.1% active;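 active = 35 to 45% if threefold the growth effect, above 45% if 1.5-fold the growth effect; inactive = the rest, general growth blockers included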;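 note: wells of about 50 µL received 100 nL stock; 0% = vehicle wells and 100% = reference inhibitor wells; whole bacteria with a GFP reporter of the hypoxia response; strong numbers were not always called active; many hits fall short of the cut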
# PrP UTR inh: inhibition of PrP 5' UTR reporter expression; inhibition, % (no concentration beside the values); cell-based PrP 5' UTR mRNA reporter, plate reader; 340,000 tested, 0.35% active;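 active = every replicate at 50% or more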;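 note: 0 = median of the neutral control wells; tested in H4 reporter cells; numbers are from one replicate; inactives centre near -14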
# RN4220 kill: growth inhibition of S. aureus RN4220, primary screen, OD600; 16 h; inhibition, % (test concentration not listed); 330,000 tested, 0.33% active;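 active = z-score of -3 or lower and OD600 up to 0.18 on both plates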;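 note: plate controls were untreated cells for no effect and reference antibiotic for full effect; stock transfer was 100 nL into about 80 µL; one replicate is shown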
# BJeLR lethal: MLPCN primary cell-based screen for lethality selective to Ras in HRASV12 cells; BJeLR (HRASV12) viability, CellTiter-Glo ATP luminescence, 48 h; reference of the scale not given here; inhibition, % (concentration not given with the values); 300,000 tested, 0.17% active;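 active = replicate mean above 50%; inconclusive = above 50% but judged a plate artefact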;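 note: 50 nL library stock added to about 25 µL; numbers are from one replicate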
# Mtb hypoxia rep growth: further read-out of Mtb hypoxia rep, marked with its call; growth inhibition, %; measured here: M. tuberculosis growth (absorbance);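 0% = vehicle and 100% = reference antibiotic; read after six days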
# Starred values were filed as active, the others as inactive; ? = inconclusive; . = no result given.
SMILES,Bead autofluor,ugtP null kill,Mtb hypoxia rep,Mtb hypoxia rep growth,PrP UTR inh,RN4220 kill,BJeLR lethal
CCN(CC(=O)Nc1cc(S(=O)(=O)N2CCOCC2)ccc1Cl)Cc1ccccc1,3107,-3,12,2,-5,6.9,.
C[C@]12CCC3C(CC[C@H]4C[C@@H](O)[C@H](O)C[C@]34C)C1CC[C@@H]2O (some centres not stated),4447,3,-6,7,2,3.6,.
Clc1ccc(Cn2ccc(-c3ccc4c(c3)OCO4)n2)cc1Cl,23441*,44,7,12,-3,7.5,-13
Cc1ccc(SC[C@H](CC(C)C)N2CCN(CCc3ccccc3)CCC2=O)cc1,4416,.,.,.,-16,.,-1
CCOC(=O)c1ccc(NC(=S)Nc2ccc(Cl)cn2)cc1,3314,13,.,.,-20,4.7,-1
Cc1nc(NC(=O)COC(=O)C(NC(=O)c2ccco2)C(C)C)c(Cl)cc1Cl (configuration not stated),4330,-3,11,10,-28,6.2,3
CCC(=O)NC(Nc1cc(C)ccn1)(C(F)(F)F)C(F)(F)F,6651,6,11,5,15,1.5,-4
O=C(O)COc1ccccc1C=NNC(=O)CNC(=O)c1ccc(F)cc1,.,2,8,10,.,1.7,.
Cn1c(SCc2ccc(Br)cc2)nnc1-c1ccccn1,4045,9,19,5,-24,4.1,2
c1ccc(-c2nnsc2Sc2ccccn2)cc1,4353,4,7,1,-27,5.2,1
CSc1ccc(S(=O)(=O)N2CCN(Cc3ccc4c(c3)OCO4)CC2)cc1,5681,9,.,.,-23,-0.2,1
COc1ccccc1N1CCN(S(=O)(=O)c2ccc3c(c2)CC(C)N3C(C)=O)CC1 (configuration not stated),6121,1,3,0,-15,2.5,-2
COc1cc(C(=O)Nc2ccc(S(=O)(=O)N3CCOCC3)cc2)c([N+](=O)[O-])cc1OC,4690,-4,9,3,-5,5.2,5
CC(C)Oc1ccc(OCCNC2CCCC2)cc1,20103*,25,10,7,-28,2.4,-4
Cc1cc(Cl)ccc1OCC(=O)NNC(=O)C1CSC2(C)CCC(=O)N12 (configuration not stated),5021,7,7,1,-26,4.6,-1
COc1ccc(Cc2nnc(N/N=C/c3ccc(O)cc3O)[nH]c2=O)cc1OC,1999,.,.,.,2,.,-18
O=C(NCC(=O)N1CCN(c2ncccn2)CC1)c1ccccc1F,3374,3,-2,5,-42,1.6,.
Cc1nn(-c2ccccn2)c2nc(-c3cccs3)cc(C(=O)NCc3ccco3)c12,2417,-17,-1,14,-3,9.1,1
CC(=O)N1CCN(C(=O)c2ccc(Cl)c(S(=O)(=O)N3CCCC3)c2)CC1,3016,-4,3,-1,0,-1.2,.
S=C(NC1CC1)NC1CCCc2ccccc21 (configuration not stated),4717,5,-6,2,12,1.5,-4
CCOC(=O)C1(Cc2cccc(OC)c2)CCN(Cc2ccon2)CC1,4492,-1,-4,10,2,5.7,-5
Cc1c(-n2cc(C(=O)c3cc(Cl)ccc3O)cc(C#N)c2=O)c(=O)n(-c2ccccc2)n1C,8292,7,6,5,.,0.6,8
O=C(COc1cccc(Cl)c1)N/N=C\c1cc2ccccc2nc1Cl,2560,.,.,.,-17,.,-1
CCN1CCN(C(=O)c2cc3cc4ccc(OC)cc4nc3s2)CC1,3324,4,2,6,-26,-0.9,-9

# In a second layout: four of the compounds above.
Cc1cc(Cl)ccc1OCC(=O)NNC(=O)C1CSC2(C)CCC(=O)N12 (configuration not stated)
  Bead autofluor = 5021
  ugtP null kill = 7
  Mtb hypoxia rep = 7
  Mtb hypoxia rep growth = 1
  PrP UTR inh = -26
  RN4220 kill = 4.6
  BJeLR lethal = -1
COc1ccc(Cc2nnc(N/N=C/c3ccc(O)cc3O)[nH]c2=O)cc1OC
  Bead autofluor = 1999
  ugtP null kill = .
  Mtb hypoxia rep = .
  Mtb hypoxia rep growth = .
  PrP UTR inh = 2
  RN4220 kill = .
  BJeLR lethal = -18
O=C(NCC(=O)N1CCN(c2ncccn2)CC1)c1ccccc1F
  Bead autofluor = 3374
  ugtP null kill = 3
  Mtb hypoxia rep = -2
  Mtb hypoxia rep growth = 5
  PrP UTR inh = -42
  RN4220 kill = 1.6
  BJeLR lethal = .
Cc1nn(-c2ccccn2)c2nc(-c3cccs3)cc(C(=O)NCc3ccco3)c12
  Bead autofluor = 2417
  ugtP null kill = -17
  Mtb hypoxia rep = -1
  Mtb hypoxia rep growth = 14
  PrP UTR inh = -3
  RN4220 kill = 9.1
  BJeLR lethal = 1

# (next part)
SMILES,Bead autofluor,ugtP null kill,Mtb hypoxia rep,Mtb hypoxia rep growth,PrP UTR inh,RN4220 kill,BJeLR lethal
COc1cc(NC(=O)c2ccco2)c(C(=O)OCC(=O)c2c[nH]c3ccccc23)cc1OC,2753,-21,-1,-16,-7,-1.8,-3
O=C(O)c1ccccc1NS(=O)(=O)c1cccc(N=Nc2c(O)[nH]c(=S)[nH]c2=O)c1,6131,9,15,-4,-26,1.6,.
CCCCCn1c(CCC(=O)Oc2ccccc2OC)nc2c1c(=O)[nH]c(=O)n2CCCC,2798,-3,.,.,-10,2.8,-8
CS(=O)(=O)N1CCC(C(=O)NCc2ccc(F)cc2Cl)CC1,9019,7,1,0,7,2.6,2
Cc1cc(Cl)ccc1OC(C)C(=O)NCCCCc1ccccc1 (configuration not stated),11380,2,4,9,-17,17,-7
CCOc1ccc(NN=C(C#N)C(N)=O)cc1,.,1,19,6,.,4.1,.
c1ccc(-c2nnc(NC3=NCCC3)o2)cc1,4342,1,12,8,-16,2.5,5
O=C(Nc1ccc(Cl)cc1)C1C2CCC3C(CCC21)C3(Cl)Cl (configuration not stated),2478,-8,0,8,-32,-13,.
CCOc1ccccc1CN1C(=O)NC(C)(c2ccccc2)C1=O (configuration not stated),4594,2,-1,6,-2,1.8,-8
Cc1cc(C)cc(NC(=O)COC(=O)COc2cccc3c2OC(C)(C)C3)c1,?,-4,2,-4,-15,4.5,-6
CN(/N=C/C=C/c1ccccc1)c1cc(=O)n(C)c(=O)[nH]1,10469,.,.,.,-39,.,-16
CC=C(C)C(=O)OC1CCN2CC=C(COC(=O)C(O)(C(C)OC)C(C)(C)O)C12 (configuration not stated),3051,5,2,6,-25,2.6,.

# 4 structures from above, arranged by molecular weight, falling.
SMILES,Bead autofluor,ugtP null kill,Mtb hypoxia rep,Mtb hypoxia rep growth,PrP UTR inh,RN4220 kill,BJeLR lethal
Cc1c(-n2cc(C(=O)c3cc(Cl)ccc3O)cc(C#N)c2=O)c(=O)n(-c2ccccc2)n1C,8292,7,6,5,.,0.6,8
COc1cc(NC(=O)c2ccco2)c(C(=O)OCC(=O)c2c[nH]c3ccccc23)cc1OC,2753,-21,-1,-16,-7,-1.8,-3
O=C(O)c1ccccc1NS(=O)(=O)c1cccc(N=Nc2c(O)[nH]c(=S)[nH]c2=O)c1,6131,9,15,-4,-26,1.6,.
Cc1nn(-c2ccccn2)c2nc(-c3cccs3)cc(C(=O)NCc3ccco3)c12,2417,-17,-1,14,-3,9.1,1

# Other records follow.
SMILES,Bead autofluor,ugtP null kill,Mtb hypoxia rep,Mtb hypoxia rep growth,PrP UTR inh,RN4220 kill,BJeLR lethal
COC(=O)c1sc2nc(-c3ccco3)ccc2c1N,9437,-16,12,3,-88,5.9,1
COc1ccc(N2CC(O)=C(c3nc(-c4ccc(Br)cc4)cs3)C2=N)cc1,3926,5,13,-1,-16,7.0,6
COc1ccc(-c2[nH]ncc2CN(C)Cc2nonc2C)c(OC)c1,3631,-6,-9,-5,-4,1.1,8
CCOc1ccc(S(=O)(=O)N2CCCCCC2)cc1,8156,9,6,6,6,3.4,2
COC(=O)C1=C(C)NC(=O)/C1=C\c1cccs1,2754,0,.,.,-42,2.3,-12
COc1cccc(C=NNC(=O)c2cnccn2)c1OC,.,2,8,7,.,3.0,.
Cc1cccc(N(C(=O)Cn2nnc(-c3ccc(F)cc3)n2)C(C(=O)NC(C)(C)C)c2ccncc2)c1 (configuration not stated),1972,4,-5,6,-4,2.9,-4
CCOc1ccc(NC(=O)COc2nsnc2N2CCOCC2)cc1,4036,-9,4,8,-31,3.2,3
O=C(Cn1nc(C(F)(F)F)c2c1CCC2)NC1CCCCC1,?,0,8,11,-15,4.8,-4
CCOC(=O)C1CCN(C(=O)Nc2ccc(C)c(Cl)c2)CC1,6424,-4,-1,8,-33,1.0,-2
CCOc1ccc(S(=O)(=O)Nc2cc(OC)ccc2OC)cc1,9878,-2,12,5,60*,0.5,46
C=CCn1cccc(C(=O)Nc2ccc(N(C)C)cc2)c1=O,3478,-9,-6,-14,-35,-3.0,-7
Cc1ccc(CN2CCN(C3CCOCC3)CC2CCO)cc1 (configuration not stated),4133,4,12,-5,-26,2.2,4
Cc1ccc(CCN2CCN=C2N(C)C)cc1,3610,1,7,0,-24,5.2,-6
CC(=O)Nc1ccc(NC(=O)CSc2nnc(NC(=O)c3cccc(F)c3)s2)cc1,5931,-11,14,1,-22,4.4,-10
Cc1cc(-c2ccccc2)n(-c2ccccc2)n1,4096,23,0,4,-26,1.0,-8
CC1CC(Nc2cccc(O)c2)=CC(=O)O1 (configuration not stated),4332,-5,.,.,-12,3.9,-1
N=c1c(S(=O)(=O)c2ccccc2)cc2c(=O)n3ccccc3nc2n1C1CCCC1,3257,-13,0,-5,25,1.6,0
CCN(CC(=O)NCc1ccc(Cl)cc1)C(=O)CCOc1ccc(C)cc1,3957,-9,0,-1,-16,-3.6,21
COc1cccc(/C=N/NC(=O)C(=O)N2CCCCCC2)c1OC,5843,.,.,.,-13,.,-2
O=C/C(=C\Nc1ccc(Cl)cn1)c1nc2cc(Cl)ccc2o1,2901,-12,-6,8,-8,2.3,-20
COC(=O)C1CCN(C(=O)COC(=O)COc2ccc(C#N)cc2)CC1,3300,6,-6,-5,-14,2.8,-3
CCOc1ccc(NC(=O)CN(C)C(=O)CN2C(=O)NC3(CCCC3)C2=O)cc1OCC,6247,2,7,-1,-15,0.0,1
COc1ccc(NC(=O)CS(=O)(=O)Cc2nc(-c3ccc(C)cc3)oc2C)cc1,6192,-1,-6,-2,-4,-6.6,0
CCCN(C(=O)CCCSc1nc2ccccc2[nH]1)c1c(N)n(Cc2ccccc2)c(=O)[nH]c1=O,?,5,0,-1,8,1.4,-2
Cc1ccc(CNC(=O)Nc2cccc(C)c2)cc1,2262,12,13,20,-62,-1.7,3
CCOC(=O)c1c(NC(=O)c2ccno2)c2cc([N+](=O)[O-])ccc2n1C,6114,2,-1,-2,4,3.3,-6
Nn1c(Cc2cccc3ccccc23)n[nH]c1=S,3404,18,1,5,-20,8.5,.
S=C(Nc1ccc(Cl)cc1Cl)NC1CCN(Cc2ccccc2)CC1,2052,1,3,3,-12,-2.9,-10
C/C(=N\OC(=O)c1ccccc1)c1cc(-c2ccc(Cl)cc2)no1,2654,.,.,.,-28,.,2
O=C(Nc1ccccc1F)c1cc(-c2ccco2)nc2ccccc12,6055,-4,-9,3,-10,6.2,-4
C[C@@H](N)C(=O)NCC1CCC(C(=O)N[C@@H](Cc2ccccc2)C(=O)O)CC1 (some centres not stated),.,8,6,-1,.,2.2,.
COc1ccc(C(=O)CC(=O)C(=O)Nc2ccccc2Cl)cc1,3163,11,7,2,3,16,6
